# StopGo RLuc: Primary qHTS Assay for Foot and Mouth Disease Virus Antivirals against NCGC Sytravon and CBC Compound Libraries: Renilla Luciferase Signal. actives 0.32% (n = 120,000). Potency, µM (series often up to 57.5 µM), inactives show top-dose signal change, negative = less light. HEK cells with a luciferase reporter of 2A StopGo recoding; active means well fitted falling curve with a large enough effect; inconclusive means small, poorly fitted or top-dose-only effect; inactive means no such curve, though single readings can be large or run the other way; note: nearly all actives have a fitted effect of over 55% in size; overnight with compound
# 2A firefly: Primary qHTS Assay for Foot and Mouth Disease Virus Antivirals against NCGC Sytravon and CBC Compound Libraries: Firefly Luciferase Signal. HEK cells with a luciferase reporter of 2A StopGo recoding. Potency, µM (highest dose often 57.5 µM), inactives show at the top dose signal change, negative = less light. actives 0.23% (n = 120,000). AID 1745856, 2022; active = well fitted falling curve with a large enough effect; inconclusive = small, poorly fitted or top-dose-only effect; inactive = no such curve, though single readings can be large or run the other way; note: nearly all actives have a fitted effect of over 60% in size; overnight with compound
# Active calls of the source: *; u = inconclusive; & = joins results of further samples; [ ] = another dose, or the depositor's remark. % is set by controls: 0 for no effect and ±100 for the full control effect; potency is the fitted concentration of half-maximal effect. Some of the compounds tested; rates above refer to the full screens.
SMILES | StopGo RLuc | 2A firefly
COc1ccc(C(=O)Nc2cc(C(C)C)c(O)c(S(=O)(=O)c3ccc(OC)cc3)c2C)cc1 | 24% | 288%[activator]
CC1=C(C(=O)Nc2ccccc2)C(c2cccc(Br)c2)NC(=S)N1 (centres undefined) | 6% | 0%
CCC(=O)Nc1nc2ccc(NC(=O)CCC(=O)N3CCCCCC3)cc2s1 | 5% | 0%
COC(=O)c1c(C)[nH]c(-c2cccc(OC)c2)c1C1C(=O)Nc2ccc(F)cc21 (centres undefined) | 185%[activator] | 27%
Cc1c(Cl)cccc1NC(=O)c1cc2sccc2n1Cc1ccc(F)cc1 | 2% | 0%
CCN(CC)C(=O)CSCc1cccs1 | 14% | 21%
c1ccc(CCc2nnc3sc(-c4c[nH]c5ccccc45)nn23)cc1 | -2% | -8%
Cc1cc(NC(=O)CN2CCN(c3nccs3)CC2)no1 | -6% | 9%
COC(=O)c1c(NC(=O)COc2ccc(Cl)cc2)sc(C)c1C | -2% | -3%
O=C(NC12CC3CC(CC(C3)C1)C2)c1ccc(F)cc1 | 12% | 21%
O=C(O)CC(NS(=O)(=O)c1ccc(Cl)s1)c1ccccc1 (centres undefined) | 33% | 24%
CCCCCCCCOC(=O)/C(C#N)=C/c1ccc(-c2ccccc2)o1 | -7% | 5%
C=CCNc1nc2c(c(=O)n(C)c(=O)n2C)n1Cc1ccc(F)cc1 | u | u
Cc1cccc(NC(=O)Cn2c(=O)nc(-c3ccccc3)c3ccccc32)c1C | -3% | 23%
CCN1C(C(=O)c2ccccc2)=C(OC(=O)COc2ccc(C)cc2)c2ccccc2S1(=O)=O | -14% | -17%
N#Cc1ccc(C(=O)Nc2ccc3nc(CCc4ccccc4)[nH]c3c2)cc1 | -10% | -7%
Cc1cccc(-n2c(SCC(=O)NC(C)c3cc4ccccc4o3)nnc2N2CCOCC2)c1 (centres undefined) | -5% | -9%
COc1ccc(CCNC(=O)CN(c2ccc(C)cc2)S(=O)(=O)c2ccc(OC)cc2)cc1 | 59%[activator] | 9%
CC(=O)N1CCc2c(sc3nc(SCC(C)C)n(-c4ccc(C)c(Cl)c4)c(=O)c23)C1 | -8% | -21%
CC(C)c1ccc(C2C3=C(CC(C)(C)CC3=O)Nc3c2c(=O)n(C)c(=O)n3C)cc1 (centres undefined) | u | 29%
COc1cc(C)cc(OC)c1OCc1cc(-c2ccco2)on1 | -4%[1.06 µM] | 0%
Cc1nn(C)c(C)c1-c1cc(C(=O)O)c2ccccc2n1 | -17% | -6%
Cc1ccc(C)c(SC(C)C(=O)NC2CCCC2)c1 (centres undefined) | 24% | 7%
COC(=O)/C(=C\c1ccc(OC(=O)c2ccccc2)cc1)C(C)=O | 2% | 2%
CC(C)C(=O)NC(NC(=S)Nc1ccccc1)C(Cl)(Cl)Cl (centres undefined) | 8% | 0%
S=C1NC2(CCCCC2)N=C1c1ccc(Cl)cc1Cl | -6% | 5%
CCCCCCCCOc1ccc(OC(=O)c2ccco2)cc1 | -10% | -7%
CC1CCN(S(=O)(=O)N(C)Cc2ccc3c(c2)OCCO3)CC1 | 0% | -5%
CC(C)CN1CCOC(CNC(=O)CSc2cc(C(=O)NC3CC3)c3ccccc3n2)C1 (centres undefined) | 6% | 4%
Clc1ccccc1C1NCc2ccccc2-n2cccc21 (centres undefined) | u | 2%

# Part of the list above in order of length of the SMILES, ascending:
SMILES | StopGo RLuc | 2A firefly
Cc1cc(NC(=O)CN2CCN(c3nccs3)CC2)no1 | -6% | 9%
O=C(O)CC(NS(=O)(=O)c1ccc(Cl)s1)c1ccccc1 (centres undefined) | 33% | 24%
CC(C)C(=O)NC(NC(=S)Nc1ccccc1)C(Cl)(Cl)Cl (centres undefined) | 8% | 0%
Cc1c(Cl)cccc1NC(=O)c1cc2sccc2n1Cc1ccc(F)cc1 | 2% | 0%
N#Cc1ccc(C(=O)Nc2ccc3nc(CCc4ccccc4)[nH]c3c2)cc1 | -10% | -7%

# Next part
SMILES | StopGo RLuc | 2A firefly
Cc1ccc(OCCCN)cc1 | 7% | 18%
Cc1nnc(NC(=O)CSc2nccn2Cc2ccccc2)s1 | -4% | 34%[activator]
O=C(CSc1nc2cc([N+](=O)[O-])ccc2o1)NCCCc1ccccc1 | -4% | -9%
Cc1oc(-c2ccc(C(=O)NCCN(C)C)cc2)nc1CS(=O)(=O)c1ccccc1 | 3% | 0%
Cc1ccccc1NC(=O)N(C)CCc1noc(-c2ccc(C(=O)N3CCCCCC3)cc2)n1 | -24% | -19%
O=c1c2oc3ccccc3c2ncn1Cc1ccc(Br)cc1 | -6% | 18%
COc1cccc(NC(=O)Cc2csc(COc3cccc(C)c3)n2)c1 | 4% | 21%
Cc1ccc(-c2cc(C(=O)Oc3ccc(C#N)cc3)no2)cc1C | -4% | 36%[activator]
O=C(COc1ccccc1F)OCc1cc(=O)n2nc(-c3cccs3)sc2n1 | -12% | 13%
COC(=O)c1sccc1NC(=O)CC1(C(=O)O)CCCC1 | 4% | 6%
Clc1ccc(C(c2ccc(Cl)cc2)C(Cl)(Cl)Cl)cc1 | 3% | -12%[11.5 µM]
CCc1ccc(CNCCN2CCCC2)cc1 | -9% | 0%
Cc1cccc(NC(=S)NCc2ccc(Cl)cc2)c1 | -80% | u
CCOC(=O)COc1ccc(C)cc1C(=O)c1ccn2nc(-c3ccc(C)cc3)cc2n1 | -20% | -2%
CC(C)C(=O)NC1(C(F)(F)F)N=C(c2ccccc2)N(CCc2ccccc2)C1=O (centres undefined) | -2% | 1%
CCOc1ccc(C(=O)CSc2nnc3cc(C)c4ccccc4n23)cc1 | -7% | -5%
COc1cc(N2C(=O)CSC23C(=O)N(C)c2ccccc23)cc(OC)c1OC (centres undefined) | -9% | -4%
CCN(c1ncnc2c1cnn2-c1cc(Cl)ccc1C)C1CCCCC1 | 6% | -8%
CC(C)(C)CC(=O)NCCC1=CCCCC1 | 8% | 119%[activator]
O=S(=O)(N=C1SCCS1)c1ccccc1 | 25% | 13%
Clc1ccc2nc(-c3ccc(Br)o3)c(Nc3ccc4c(c3)OCCO4)n2c1 | -10% | 35%[activator]
CCOC(=O)Cn1cc(CN2C(C(=O)OC)CN(C3CCCC3)CCS2(=O)=O)nn1 (centres undefined) | 6% | -3%
CSc1nnc2c(n1)OC(c1ccc3c(c1)OCO3)N(C(C)=O)c1ccc(Br)cc1-2 (centres undefined) | 5% | 2%
Cc1cccc(NC(=S)N(CCC(C)C)C(C)c2cccs2)c1 (centres undefined) | 13% | 22%
COc1ccc(OC)c(CN(C(=O)c2ccc(F)cc2)C2CC2)c1 | 41%[activator] | -3%
O=S(=O)(Nc1ccc2nc(-c3cccc(Cl)c3)oc2c1)c1ccccc1 | 163%[activator] | 18%
COc1cccc2[nH]c(C(=O)Nc3ccc4c(c3)OCCO4)cc12 | 8% | 83%[activator]
COc1ccc(-c2c(C)oc3cc(OCC(=O)OC(C)C)ccc3c2=O)cc1OC | -16% | -12%
CCC(=O)Nc1c(C(=O)Nc2ccc(F)cc2)oc2ccccc12 | 21% | 58%[activator]
CCOc1ccccc1N1CC(c2nc3ccccc3n2Cc2c(C)cc(C)cc2C)CC1=O (centres undefined) | -11% | 10%
O=C(/C=C/c1ccc(Cl)cc1)c1ccc(Oc2ccccc2)cc1 | 14% | 0%
Cc1cc(CNC(=O)N2CCN(CC(=O)Nc3ccccc3C(F)(F)F)CC2)ccc1F | 0% | 1%
CN(CCOC(=O)c1cc2ccccc2o1)C1CN(Cc2cn(Cc3cccc(F)c3)nn2)S(=O)(=O)C1 (centres undefined) | 16% | 0%
CCc1ccc(C2N3CC4(CC)CN2CC(CC)(C3)C4=O)cc1 (centres undefined) | -12% | -8%
O=C1CN(C(=O)CCc2ncc(-c3ccccc3)o2)CCN1 | 6% | 44%[activator]
Cc1cccc(NC(=O)CSc2nc3ccc(NC(=O)COc4ccccc4C)cc3s2)c1 | 5µM* | u
O=C(c1ccco1)N(Cc1cccs1)C1CC1 | 6% | 10%
CCCn1c(N)c(N2CCOCC2)c(=O)n(CC(=O)NCc2ccc(C)cc2)c1=O | 0% | 9%
CCC(C)NC(=O)Cc1csc(NC(=O)Nc2ccccc2OC)n1 (centres undefined) | 1% | 34%[activator]
COc1ccc(CNC(=O)c2cnc3sc(N4CCCCCC4)nn3c2=O)cc1 | -15% | -21%
COc1cc(OC)c(/C=C(\C#N)C(=O)O)cc1Br | 50%[activator] | 9%
COc1ccc(-c2nnc(SCC(=O)Nc3ccccc3)[nH]c2=O)cc1 | 22% | 195%[activator]
CCOc1cccc(CNC(=O)c2ccc(N3CCCC3)c(NC(=O)NCc3ccc(F)cc3)c2)c1 | -8% | -15%
CC(=O)c1ccc(NC(=O)[C@@]2(CC(=O)O)CC(c3ccc(F)cc3)=NO2)cc1 | -6% | 9%
O=C1c2[nH]nc(-c3ccc(Br)cc3)c2C(c2cccc(O)c2)N1c1ccc(Cl)cc1 (centres undefined) | u | u
CSc1ccc(CCNC(=O)NCc2noc3ccccc23)cc1 | 2%&14% | 12%&1%
CCOC(=O)C1=C(N)OC(C)=C(C(=O)OCc2ccccc2)C12C(=O)Nc1ccc(Br)cc12 (centres undefined) | 19%[1.06 µM] | u
CCn1ncc(Cl)c1CNC(=O)C1CCCN(S(=O)(=O)c2cnn(C)c2C)C1 (centres undefined) | 6% | 14%
O=C(O)c1ccc(/C=C/C(=O)c2cccc(Br)c2)cc1 | 14% | 84%[activator]
CCN(Cc1ccccc1)C(=O)Cn1cc(C#N)c2ccccc21 | 5% | 5%
CC(C)CCN1C(=O)c2ccccc2CC1(C)C(=O)NC1CCC(C)CC1 (centres undefined) | -3% | 0%
C[C@]12Cc3cn[nH]c3C[C@@H]1CC[C@@H]1[C@@H]2CC[C@@]2(C)[C@H]1CC[C@]2(C)O | -12% | -20%
CCN(CC)c1ncnc2c1cnn2-c1cc(Cl)ccc1C | 7% | 9%
CCCCOC(=O)C1CCCC(C)N1 (centres undefined) | 14% | 9%
O=C(CCc1ncc(-c2ccc(Cl)cc2)o1)Nc1ccc2ccccc2c1 | 7% | 90%[activator]
Cc1ccc(NC(=O)CCc2ccc(C)s2)c(C)c1 | 21% | 38%[activator]
Cc1cn2c(=O)cc(COC(=O)c3cccc(NC(=O)COc4ccc(Cl)cc4)c3)nc2s1 | -14% | -17%
CCCn1cnc2nc(CSc3ccccc3NC(=O)c3ccccc3C)cc(=O)n21 | 2% | 16%
O=C(Nc1cccc(Cl)c1)C1CCN(S(=O)(=O)Cc2ccccc2)CC1 | -6% | -18%
Cc1nn(C(=O)c2ccc(Cl)cc2)c(C)c1S(=O)(=O)N1CCCCCC1 | -5% | -4%

# The list goes on.
SMILES | StopGo RLuc | 2A firefly
COc1cccc(/C=C/c2ccc3cccc(O)c3n2)c1OC | -2% | 153%[activator]
CCn1nc(C(=O)N2CC(C(=O)N(C)C)Oc3ccccc32)c2ccccc2c1=O (centres undefined) | 22% | 8%
N#Cc1ccc(C2Nc3ccccc3C(=O)N2c2ccc(Cl)cc2)cc1 (centres undefined) | -1% | 143%[activator]
CCCn1nc(C(=O)Nc2nc(C)c(C(C)=O)s2)c2ccccc2c1=O | 47%[activator] | 0%
CCN(CC)S(=O)(=O)c1ccc(C(=O)NC2CC(=O)N(c3ccc4c(c3)OCCO4)C2)cc1 (centres undefined) | -2% | -7%
CCc1ccc(NC(=O)Cn2nnc(C(=O)NCc3ccc(C)cc3)c2N)cc1 | -8% | -9%
O=C(O)c1ccc(-n2c(/C=C/c3cccc(O)c3)nc3ccccc3c2=O)cc1 | 39%[activator] | 39%[activator]
Cc1ccc2c(c1)NC(SCC(=O)Nc1cccc(Br)c1)=NS2(=O)=O | 139%[activator] | 9%
COc1ccc(Cn2c(=O)c3oc4ccccc4c3n(CC(=O)Nc3c(C)cccc3C)c2=O)cc1 | -10% | -24%
COc1ccccc1NC(=O)Cc1c[nH]c2ccccc12 | 19% | 24%
Cc1c(Cc2ccccc2)c(=O)oc2cc(OCc3ccc(C(C)(C)C)cc3)ccc12 | 2% | -1%
CCC(Oc1ccccc1-c1nnc(-c2ccccc2)o1)C(=O)Nc1ccc(C(C)=O)cc1 (centres undefined) | -1% | -6%
CS(=O)(=O)c1ccc2nc(NC(=O)Cc3ccc(Br)cc3)sc2c1 | -9% | -10%
CCCOc1cccc(-c2cc(C(=O)NC(C)C)c3ccccc3n2)c1 | 8% | 15%
CC(C)(C)C(=O)/C=c1/[nH]c(=O)/c(=C/c2ccc(C(F)(F)F)cc2)s1 | u | u
CSc1ccc(/C=C/C(=O)c2ccc3c(c2)NC(=O)CO3)cc1 | 8% | 13%
COCCNc1oc(/C=C/c2ccc(F)cc2)nc1C#N | -1% | 71%[activator]
N#Cc1ccc(SCc2ccccc2)cc1SCc1ccccc1 | 23% | 104%[activator]
CC(C)(C)c1cc(/C=N/O)cc(C(C)(C)C)c1O | 0% | -8%
O=C(c1cccc(OC(F)F)c1)N1CCC(NS(=O)(=O)c2cccs2)CC1 | 5% | -10%
O=C(OCc1ccc(F)cc1)c1cccc(S(=O)(=O)N2CCCCC2)c1 | 5% | 1%
CCOC(=O)C1=C(C)N(C)C(=O)NC1c1ccc(Br)s1 (centres undefined) | -1% | 4%

# 2 of the compounds above, with two lines to a compound.
# Each structure is followed by: StopGo RLuc	2A firefly
O=C(O)c1ccc(-n2c(/C=C/c3cccc(O)c3)nc3ccccc3c2=O)cc1
    39%[activator]	39%[activator]
Cc1ccc2c(c1)NC(SCC(=O)Nc1cccc(Br)c1)=NS2(=O)=O
    139%[activator]	9%

# Screens: PubChem, National Center for Advancing Translational Sciences (NCATS)
